# FGF22 binding: shifts melting point of recombinant human FGF22. Q9HCT0. recombinant FGF22 thermal shift, SYPRO orange fluorescence; percent of sucrose octasulfate shift, DMSO zero. calls only at 9.99 µM. actives 1.5% (n = 340,000). AID 651658;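 active = melting point raised past a set limit in the mean and every replicate; inconclusive = no clear call; three in four hits are not shown here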
# ALR inh: human ALR oxidase inhibition via reduced H2O2; P55789; purified ALR, DTT oxidation, H2O2 HRP-luminol luminescence; inhibition, % (concentration not given with the values); actives 3.8% (n = 290,000);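 active = mean and each replicate at 75% or more; inconclusive = only one of the two met; inactive = neither met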;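 note: stock transfer was 7.5 nL into about 7.5 µL; 0% = neutral wells and 100% = wells with inactivated enzyme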
# Target sequence (P55789 whole entry, looked up): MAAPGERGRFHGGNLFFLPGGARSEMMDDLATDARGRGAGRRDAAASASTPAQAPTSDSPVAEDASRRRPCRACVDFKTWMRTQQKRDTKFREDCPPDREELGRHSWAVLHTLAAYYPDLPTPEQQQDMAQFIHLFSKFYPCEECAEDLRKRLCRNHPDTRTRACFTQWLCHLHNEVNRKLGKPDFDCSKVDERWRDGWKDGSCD
# Beta2AR agonist: human beta-2 adrenergic receptor agonism by FAP | P07550 | Am2.2-beta2AR cells, FAP receptor internalization, flow cytometry; reference of the scale not given here | response, % (test concentration not listed) | actives 0.43% (n = 340,000);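 active = response above a set limit, near 3 SD of response in nonfluorescent compounds, cut at about 42% in these data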;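 note: stock transfer was 100 nL into about 11 µL; a reference agonist was the positive control; negative values mostly stem from fluorescent compounds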
# UCH37 DUB inh: blocks the human deubiquitinase UCH37 | AID 588478 | inhibition, % (no concentration beside the values) | purified proteasome/UCH37, Ub-AMC cleavage fluorescence | actives 0.33% (n = 330,000) | Q9Y5K5;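 active = mean of two replicates above 20%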;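 note: 0% = compound-free wells with enzyme and 100% = wells lacking proteasome; stock transfer was 100 nL into about 20 µL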
# Target sequence (Q9Y5K5 whole entry, looked up): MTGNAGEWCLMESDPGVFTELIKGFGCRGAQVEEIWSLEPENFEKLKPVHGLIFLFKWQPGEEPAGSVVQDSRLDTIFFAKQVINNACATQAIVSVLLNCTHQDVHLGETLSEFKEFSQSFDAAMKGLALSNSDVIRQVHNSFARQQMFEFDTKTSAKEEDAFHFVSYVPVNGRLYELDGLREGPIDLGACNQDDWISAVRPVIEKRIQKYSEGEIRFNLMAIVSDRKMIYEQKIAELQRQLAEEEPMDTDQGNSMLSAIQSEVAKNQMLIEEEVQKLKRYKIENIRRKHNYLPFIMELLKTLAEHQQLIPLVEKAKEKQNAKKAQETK
#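 Material: Human UCH37 enzyme supplied as purified proteasome complex | Schedule: 30 min compound-proteasome preincubation then 25 min substrate reaction, room temperature | Detection: AMC fluorescence from Ub-AMC cleavage, excitation 355 nm, emission 460 nm | Benchmarks: Wells without proteasome as full block, compound-free enzyme plus substrate as uninhibited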
# Ecoli rRNA inh: inhibits bacterial ribosomal RNA function over humanized ribosomes; actives 1.6% (n = 350,000); E. coli WT GFP vs humanized-ribosome RFP mutants, fluorescence, 24 h; active compounds read low; DMSO median 0, no signal -100; AID 720706; GFP signal change (wild-type ribosome), % (concentration not given with the values);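 active = significant combined selectivity score with lowered wild-type GFP, culture density cut under 30%, mutant RFP and density less affected; inactive = any of these conditions unmet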; note: one replicate is shown; some compounds called inactive have numbers as strong as hits
# HNF4A DNA FP: change in binding of human HNF4 alpha to DNA | HNF4a-FITC DNA binding, fluorescence polarization, 1 h | activity change, % at 10 µM | actives 0.3% (n = 360,000) | P41235; in the data active = activity change above about 30%, passing the limit was not always enough;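 note: controls were the assay level and a saturating level of protein; the project sought stronger binding though the title names inhibitors; some compounds called inactive have numbers as strong as hits; positive values seem to mean higher polarization but the record does not say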
# Target sequence (P41235 whole entry, looked up): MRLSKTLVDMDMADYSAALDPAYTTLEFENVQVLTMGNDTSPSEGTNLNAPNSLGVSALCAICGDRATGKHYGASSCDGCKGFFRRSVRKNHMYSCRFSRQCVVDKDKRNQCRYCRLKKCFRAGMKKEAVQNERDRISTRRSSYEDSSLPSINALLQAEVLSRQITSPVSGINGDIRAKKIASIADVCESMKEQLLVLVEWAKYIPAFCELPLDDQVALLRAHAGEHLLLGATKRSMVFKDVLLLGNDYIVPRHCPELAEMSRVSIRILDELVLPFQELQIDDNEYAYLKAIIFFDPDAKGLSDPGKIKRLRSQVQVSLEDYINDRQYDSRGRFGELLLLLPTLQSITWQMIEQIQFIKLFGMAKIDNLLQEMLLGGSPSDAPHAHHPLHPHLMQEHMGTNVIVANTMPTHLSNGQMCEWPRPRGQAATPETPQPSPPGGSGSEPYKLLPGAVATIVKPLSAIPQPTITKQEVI
# Ecoli growth: inhibitors of Escherichia coli growth; OD600, 23 h; active compounds read low; actives 0.21% (n = 330,000); AID 1053175; OD600 absorbance (no concentration beside the values);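 active = OD600 absorbance below the run mean of sample wells minus 3.6 SD, in any replicate, cut at about 0.56 in these data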;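 note: stock transfer was 300 nL into about 60 µL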
# Ecoli rRNA inh OD600: second read-out of Ecoli rRNA inh, no call of its own (marks repeat the call); OD600 change, %; measured here: OD600 growth;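 optical density of the mix in the first replicate; 0 = DMSO median and -100 = no signal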
# Ecoli rRNA inh RFP: further read-out of Ecoli rRNA inh, marked with its call; RFP signal change, %; measured here: RFP humanized mutant strains;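 first replicate; 0 = DMSO median and -100 = no signal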
# Starred values were filed as active, the others as inactive; i = inactive; ? = inconclusive; . = not tested or not shown; & = joins results of further samples. Only part of the results is shown. The share of hits here may be higher or lower than overall.
SMILES,FGF22 binding,ALR inh,Beta2AR agonist,UCH37 DUB inh,Ecoli rRNA inh,Ecoli rRNA inh OD600,Ecoli rRNA inh RFP,HNF4A DNA FP,Ecoli growth
COc1cccc2c1C1(O)C2CCCCCCCCCC12OCCCO2 (stereo unspecified),i,.,-6,.,-28,-47,-6.9,-5.1,.
COc1cc(NC(=O)CN(C)S(=O)(=O)c2ccc3c(c2)CC(C)N3C(C)=O)cc(OC)c1 (stereo unspecified),i,-24,4,-0.9,-5,-5,-0.6,-1.3,0.69
Cn1ncc([N+](=O)[O-])c1C(=O)NC1CCCCC1,i,-2,-1,1.8,5,15,2.0,-5.7,0.7
O=C(CCc1ccccc1O)NC1CCCc2ccccc21 (stereo unspecified),i,.,1,4.2,-4,-6,0.6,3.2,0.69
Cc1nc(SCC(=O)Nc2ccccc2C(F)(F)F)c2c(=O)n(C)c(=O)n(C)c2n1,.,.,8,0.8,.,.,.,3.6,0.72
CCS(=O)(=O)N1Cc2ccccc2CC1C(=O)N(C)CC(=O)Nc1ccc(OC)cc1 (stereo unspecified),i,1,6,1.5,2,10,-1.3,2.2,0.69
C[C@@H]1CN([C@@H](C)CO)S(=O)(=O)c2ccc(Br)cc2O[C@@H]1CN(C)Cc1cccnc1,i,.,.,.,19&2,17&17,2.1&2.4,-1.9,.
CCN1C(=O)CSc2ccc(C(=O)NCc3ccccc3)cc21,i,-2,1,0.5,-3,-14,-0.3,-3.1,0.69
CCOC(=O)c1sc(NC(=O)c2ccco2)c(C#N)c1C,i,2,-19,9.6,-6,3,-2.6,-0.4,0.69
CC(C)(C)c1ccc(C(=O)NN=C2CCCC2)cc1,i,9,-2,3.3,-2,3,-6.9,1.3,0.65
COc1ccc(N2CCN(C(=O)CCCNC(=O)Cn3cnc4sc(C)c(C)c4c3=O)CC2)cc1,i,5,-7,1.3,4,2,0.1,2.6,0.66
Cc1ccccc1NS(=O)(=O)c1ccc(C(=O)N(C)CC(=O)Nc2ccccc2Br)cc1,i,-2,-8,0.2,-14,-18,5.2,4.3,0.69
CCCNC(=S)N1CCC(C(=O)c2ccc3c(c2)OCCO3)CC1,i,-3,0,0.5,-10,-18,-1.1,0.1,0.68
CN(C)CCNC(=O)c1cccc(-c2cnc3c(NC=O)cc(-c4ccc(F)cc4)cn23)c1,i,.,.,.,-33,-74,24,3.7,.
CSc1ccccc1C(=O)Nc1nc2ccccc2[nH]1,.,-4,-9,2.3,12,17,1.1,-2.1,0.66
O=C(NCCCN1CCOCC1)c1ccc(CNS(=O)(=O)c2ccc(Br)cc2)cc1,i,.,4,0.2,-25,-5,-14,-0.1,0.71
CCOC(=O)N1CCN(C(=O)CCN2C(=O)COc3ccc(C)cc32)CC1,.,-2,-4,4.2,.,.,.,-1.4,0.68
NC(=O)C1CCN(C(=O)c2cc(S(=O)(=O)N3CCOCC3)c(Cl)cc2Cl)CC1,.,.,4,-1.4,.,.,.,-2.6,0.73
CCN(CC)C(=O)Cn1cc(S(=O)(=O)CC(=O)NCCc2ccc(OC)c(OC)c2)c2ccccc21,i,-15,-3,3.0,6,1,-0.1,5.9,0.7
CC(C)Oc1ccc(Cn2c(-c3ccco3)n[nH]c2=S)cc1,.,32,14,-0.2,-18,-27,-12,1.6,0.69

# Of the compounds above, these have an aryl methoxy group.
SMILES,FGF22 binding,ALR inh,Beta2AR agonist,UCH37 DUB inh,Ecoli rRNA inh,Ecoli rRNA inh OD600,Ecoli rRNA inh RFP,HNF4A DNA FP,Ecoli growth
COc1cccc2c1C1(O)C2CCCCCCCCCC12OCCCO2 (stereo unspecified),i,.,-6,.,-28,-47,-6.9,-5.1,.
COc1cc(NC(=O)CN(C)S(=O)(=O)c2ccc3c(c2)CC(C)N3C(C)=O)cc(OC)c1 (stereo unspecified),i,-24,4,-0.9,-5,-5,-0.6,-1.3,0.69
CCS(=O)(=O)N1Cc2ccccc2CC1C(=O)N(C)CC(=O)Nc1ccc(OC)cc1 (stereo unspecified),i,1,6,1.5,2,10,-1.3,2.2,0.69
COc1ccc(N2CCN(C(=O)CCCNC(=O)Cn3cnc4sc(C)c(C)c4c3=O)CC2)cc1,i,5,-7,1.3,4,2,0.1,2.6,0.66
CCN(CC)C(=O)Cn1cc(S(=O)(=O)CC(=O)NCCc2ccc(OC)c(OC)c2)c2ccccc21,i,-15,-3,3.0,6,1,-0.1,5.9,0.7

# Further entries follow:
SMILES,FGF22 binding,ALR inh,Beta2AR agonist,UCH37 DUB inh,Ecoli rRNA inh,Ecoli rRNA inh OD600,Ecoli rRNA inh RFP,HNF4A DNA FP,Ecoli growth
COc1cc(CO)ccc1Oc1nc2ccccc2n2cnnc12,i,.,-8,1.4,19,1,3.2,1.4,0.67
COc1ccc(NC(=S)N2CCN(C/C=C/c3ccccc3)CC2)cc1OC,.,0,-5,0.1,-9,-8,2.5,-0.1,0.72
CCC(CC)c1nc(C#N)c(NCc2ccccc2)o1,.,4,-14,0.5,.,.,.,-1.7,0.67
COc1cc(OC)c(OC)cc1/C=C/C(=O)c1ccc(NS(=O)(=O)c2ccc(C)cc2)cc1,.,-19,4,-11,.,.,.,35,0.74
CN1C[C@@H]2[C@@H]3C(=O)N(C)C(=O)[C@@H]3[C@](C)(C1=O)N2C(=O)c1ccc(C(C)(C)C)cc1,i,.,-1,2.3,12,-6,6.7,0.1,.
C/C(=N\NC(=O)c1cc2ccccc2cc1O)c1ccc2c(c1)OCO2,.,12,-1,.,.,.,.,-1.2,.
O=C(c1ccc(Br)cc1)N1CCC(C(=O)N2CCN(Cc3ccccc3)CC2)CC1,i,-13,5,1.9,-4,-16,-1.2,-1.2,0.71
CC(NC(=O)COc1ccccc1)C(c1cccs1)N1CCCC1 (stereo unspecified),.,1,1,3.8,-5,-20,3.7,0.3,0.69
CCOc1ccccc1NC(=S)Nn1cnnc1,.,-1,-8,2.2,18,16,1.7,4.8,0.69
CCN(CC)S(=O)(=O)c1ccc(Cl)c(C(=O)Nc2cccnc2)c1,i,1,0,1.5,2,1,-0.7,2.2,0.68
O=S(=O)(c1cccc(Br)c1)N1CCN(S(=O)(=O)c2ccc3c(c2)OCCO3)CC1,i,-2,-1,2.3,17,17,2.6,-1.7,0.72
C=CCOC(=O)C1C(=O)CC(C)(O)C(C(=O)OCC=C)C1c1ccc(OCC)cc1 (stereo unspecified),.,2,3,4.3,.,.,.,-3.0,0.78
N#Cc1c(Nc2ccccc2)[n+]([O-])c2ccc(Cl)cc2[n+]1[O-],i,.,4,.,-52,-69,0.3,-4.8,.
CCC(C)[C@H](NC(=O)OC(C)(C)C)C(=O)NCC1CCC(C(=O)N[C@@H](Cc2ccccc2)C(=O)O)CC1 (stereo partly specified),i,3,-5,-0.4,1,8,-0.1,-4.2,0.65
O=C(O)c1cc([N+](=O)[O-])ccc1NCc1ccccc1Cl,i,.,6,4.2,-47,-70,-12,4.6,0.7
Cc1cc(CNC(=S)Nc2ccc(Br)cc2Cl)nn1C,.,.,7,3.3,-47*,-34*,-13*,-1.9,0.69
Cc1c(C(=O)N2CCc3ccccc3C2)oc2ccc(S(=O)(=O)N3CCCCCC3)cc12,i,-16,48*,0.6,3,10,-2.0,0.9,0.74
O=C(c1cn(-c2ccc(Cl)c(Cl)c2)nn1)C1CC1,i,-2,-4,2.1,-5,1,-3.4,1.8,0.72
c1ccc2c(OCCCCN3CCCC3)cccc2c1,i,-36,4,4.6,1,-11,13,-0.5,0.68
O=C(CSc1nnc(-c2ccncc2)o1)Nc1cc(Cl)ccc1C(=O)O,i,.,-3,2.2,12,7,-5.7,0.6,0.69
CCN(CC)c1ccc(NC(=O)Nc2cccc3ccccc23)cc1,.,29,3,-8.6,.,.,.,-23,0.7
COc1cccc(/C=N/NC(=O)CNC(=O)c2ccc(S(=O)(=O)N3CCCC3)cc2)c1OC,i,5,3,.,11,20,5.6,3.5,.
CCC1CCCCN1C(=O)/C=C/c1ccc2c(c1)OCO2 (stereo unspecified),i,4,1,-0.2,-15,-17,-2.2,-0.5,0.65
Cc1ccc(S(=O)(=O)N2CCN(C(=O)CCC(=O)NCc3cccc(C(F)(F)F)c3)CC2)cc1,i,6,1,2.8,-14,-35,-3.6,-2.2,0.69
Cc1ccc2oc(-c3ccc(NC(=O)CC(C)C)cc3)nc2c1,i,-1,0,-25,3,12,-1.7,-3.8,0.73
Cc1cc2c(c(SCC(N)=O)n1)C(=O)OC2,i,-2,-1,3.0,19,12,7.6,-0.2,0.69
O=C(CSc1nc2ccccc2[nH]1)NC1CCCC1,i,-2,3,3.1,14,6,1.7,-9.0,0.7
Cc1cccc(NC(=O)Cn2nc(-c3ccco3)ccc2=O)c1C,i,9,-9,-115,3,5,-1.6,0.8,0.63
Cc1cc2c(cc1S(=O)(=O)N1CC(C)CC(C)C1)OCC(=O)N2 (stereo unspecified),i,.,5,9.2,4,10,-0.8,1.6,0.83
CC(=O)Nc1ccc(NC(=O)COC(=O)c2c(C)nn(-c3ccccc3)c2C)cc1,i,94*,-8,4.1,.,.,.,0.3,0.73
CCc1cccc(C)c1NC(=O)CSc1nc(-c2ccccc2F)nc2nc[nH]c12,.,1,-11,-4.8,.,.,.,0.5,0.69
CCN(CC)Cc1ccccc1CNC(=O)c1cccc(S(=O)(=O)Nc2ccc3c(c2)OCO3)c1,i,-7,9,0.6,.,.,.,0.6,0.67
O=[N+]([O-])c1ccccc1CSc1nc2ccccc2o1,.,-14,-2,1.5,.,.,.,2.8,0.66
O=C(O)c1cc(-n2cccc2)ccc1N1CCOCC1,i,28,-1,0.4,7,6,1.5,1.2,0.65
CCSc1nnc(-c2ccccc2NC(=O)CC)c(=O)[nH]1,.,4,2,3.3,.,.,.,-4.2,0.69
O/N=C/c1ccn(-c2ccc(Br)cc2)c1,i,-5,3,.,-26,-25,-1.5,-0.2,.
Cc1ccc(OCc2nc(-c3ccccn3)n[nH]2)cc1,.,9,-13,1.2,.,.,.,0.8,0.75
Cc1cc(-n2[nH]c(C)c(C)c2=O)nc(-c2ccccc2O)n1,.,26,-1,0.8,.,.,.,1.0,0.75
O=C(COC(=O)c1ccc([N+](=O)[O-])s1)c1ccc[nH]1,i,-21,9,.,.,.,.,-4.4,.
COc1ccc(N2CCN(C(=S)Nc3ccc(OC)cc3OC)CC2)cc1,i,.,-2,4.9,-1,-3,-3.6,-4.3,0.68
CCOC(=O)N1CCC(NC(=O)c2cnc3n(c2=O)CCS3)CC1,i,-17,-4,1.6,4,5,1.5,1.6,0.77
CC1(C)c2cc(Cl)ccc2-n2c1cc(O)c(-c1ccccc1)c2=O,i,?,-3,.,.,.,.,-1.3,.
Cc1c(N)cc(N)cc1C(=O)O,i,1,-46,-0.8,4,5,-1.5,-3.1,0.65
CCOc1ccc(S(=O)(=O)Nc2cccc(C(=O)N(C)CC(=O)Nc3ccc(OC)cc3)c2)cc1,i,.,4,0.6,5,-12,-1.8,-1.1,0.64
COCCC(=O)N1CCC(C(=O)Nc2ccc(Oc3ccccc3)nc2)CC1,i,9,3,-0.3,1,7,-2.4,-0.8,0.63
Nc1nc(Cl)cc(Oc2ccc([N+](=O)[O-])cc2)n1,i,2,1,3.7,7,6,-0.6,5.8,0.66
Fc1ccc(CN2CCN(c3ncnc4scc(-c5ccccc5)c34)CC2)cc1,i,17,15,4.9,-52,-74,-13,0.6,0.65
Cc1ccccc1-c1nc(CS(=O)(=O)CC(=O)N2CCCCC2)c(C)o1,i,-7,-4,0.7,-19*,-13*,3.3*,-0.5,0.67

# High-throughput results from PubChem.
